Mtb H37Rv – M. tuberculosis H37Rv growth inhibitors, H37Rv strain (AID 1626); inhibition, % at 10 µM, or IC50 in µM where a hit was titrated; M. tuberculosis H37Rv growth inhibition; higher % means a stronger effect; 220,000 tested, 0.95% active;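 active means confirmed in a dose series; inconclusive means inhibition above 80% but not taken into the dose series; inactive means below 80% or under 30% at every dose of the series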;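 further: bacteria incubated seven days before Alamar blue readout; 0% = bacteria only wells and 100% = bacteria with antibiotic wells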
Arbovirus anti – arbovirus infection inhibition; arbovirus infection cell-based antiviral screen; inhibition, % at 10 µM; 200,000 tested, 0.37% active; AID 1251;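 active means inhibition from about 30%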;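 further: bluetongue infection of BSR cells; cell survival read as ATP light after 72 h; 0% = infected wells without compound and 100% = uninfected wells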
RecA splice inh – inhibitors of M. tuberculosis RecA intein splicing; P9WHJ3; cell-free RecA intein splicing, fluorescence; inhibition, %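 (about 9 µM by stock and volumes)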; 290,000 tested, 0.75% active; AID 2221; in the data active means inhibition above about 30%; inconclusive means no clear call, values can overlap the other calls;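 further: 0% = vehicle wells and 100% = reference inhibitor control wells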
Target sequence (P9WHJ3 whole entry, looked up, canonical isoform): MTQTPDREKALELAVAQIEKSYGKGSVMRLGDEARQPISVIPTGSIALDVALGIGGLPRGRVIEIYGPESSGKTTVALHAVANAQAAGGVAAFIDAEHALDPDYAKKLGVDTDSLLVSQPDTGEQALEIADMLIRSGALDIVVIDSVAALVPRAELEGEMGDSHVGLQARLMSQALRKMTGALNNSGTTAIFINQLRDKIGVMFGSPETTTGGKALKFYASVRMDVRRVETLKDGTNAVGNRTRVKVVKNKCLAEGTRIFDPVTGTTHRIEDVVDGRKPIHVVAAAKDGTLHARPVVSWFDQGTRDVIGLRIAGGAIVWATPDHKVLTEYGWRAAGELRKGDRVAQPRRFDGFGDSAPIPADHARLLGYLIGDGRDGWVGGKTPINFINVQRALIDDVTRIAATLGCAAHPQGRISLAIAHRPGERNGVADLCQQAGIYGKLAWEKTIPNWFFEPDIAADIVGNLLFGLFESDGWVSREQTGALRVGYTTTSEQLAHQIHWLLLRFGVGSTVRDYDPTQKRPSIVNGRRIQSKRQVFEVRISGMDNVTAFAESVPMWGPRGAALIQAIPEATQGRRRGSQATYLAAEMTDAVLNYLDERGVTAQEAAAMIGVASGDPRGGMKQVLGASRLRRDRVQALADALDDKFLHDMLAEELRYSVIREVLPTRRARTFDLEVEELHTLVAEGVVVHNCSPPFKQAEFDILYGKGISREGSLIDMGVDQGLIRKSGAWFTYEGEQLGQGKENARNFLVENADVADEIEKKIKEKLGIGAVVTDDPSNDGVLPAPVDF
Mtb bLac sens – beta-lactam sensitization of Mtb H37Rv; 330,000 tested, 0.27% active; M. tuberculosis H37Rv growth with meropenem, percent inhibition; hits of this screen are not shown here; AID 434955; inhibition, % at 25 µM;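 active means about 74% or more and at least 40 points above the plate without the antibiotic, then above 30% in a dose series; inconclusive means first-round hits that could not be retested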;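 further: growth measured after seven days incubation then overnight dye step; 0% = bacteria only wells and 100% = bacteria with antibiotic; twin plates without the antibiotic show which effects depend on it; some results filed as inactive read as strong as hits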
YopH inh – inhibitors of Yersinia enterocolitica YopH tyrosine phosphatase. 140,000 tested, 0.16% active. AID 898. fluorescence Ex485/Em525. inhibition, %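 (about 10 µM by stock and volumes)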;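 active means inhibition of 50% or more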;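 further: controls were vehicle for no effect and minimum signal wells for full effect; inactives centre near -20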
Arbovirus anti repeat – second read-out of Arbovirus anti, no call of its own (marks repeat the call); inhibition, %; measured here: 10K subset replicate screen; many hits read low in the repeat;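 first of two repeat runs on a subset; 0% = infected and 100% = uninfected wells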
The depositor's hits bear a star; ? = inconclusive; / = not tested or not shown.

SMILES | Mtb H37Rv | Arbovirus anti | RecA splice inh | Mtb bLac sens | YopH inh | others
COC(=O)c1ccccc1NS(=O)(=O)c1ccc(F)cc1 | -2.0% | 3.1 | 1.4 | -8.5 | -12.8
COc1ccc(-c2nnc3sc(-c4cccs4)nn23)cc1OC | -7.9% | -16.9 | -0.8 | 49.2 | -15.8
COc1ccc(N2C(=O)CS(=O)C(c3ccccc3)C2=O)cc1 (stereo not drawn) | -7.8% | 12.6 | 16.0 | 2.1 | /
O=C(NC1CCCCC1)C(c1ccc2ncccc2c1)N(Cc1ccc2c(c1)OCO2)C(=O)c1cccs1 (stereo not drawn) | 8.9% | -4.4 | 14.7 | 7.9 | -43.6
Cc1cc(NC(=O)CCS(=O)(=O)c2ccc(F)cc2)no1 | / | / | -0.3 | -9.0 | /
O=C(O)/C(=C/c1ccco1)c1ccccc1 | 3.3% | -2.3 | -6.1 | 9.6 | /
CCCN(CCC)CCCNC(=S)Nc1ccc2nc(N3CCCC3)cc(C)c2c1 | 7.8% | -21.2 | / | -5.6 | /
O=C(CSc1ncc(-c2ccccc2)[nH]1)Nc1ccccc1F | 0.6% | -8.9 | -1.5 | -6.7 | /
CN(C)CC/C=C1\c2ccccc2Sc2cc(F)c(Cl)cc21 | / | / | 6.2 | 90.9 | /
S=C(NCc1cccnc1)Nc1ccc(Oc2ccc(Cl)cc2)cc1 | 1.2% | / | 2.6 | -6.3 | /
Cc1cc(NC(=O)Cn2c(=O)n(Cc3ccccc3)c(=O)c3ccccc32)no1 | / | -3.7 | -3.5 | 0.5 | -35.6 | Arbovirus anti repeat=-15.7
CN(C)CCP(=O)(c1ccccc1)c1ccccc1 | 0.8% | 2.2 | 1.7 | -0.2 | /
Cc1cc(C)cc(-n2c(C)cc(/C=C3\C(=N)N4N=C(CC(C)C)SC4=NC3=O)c2C)c1 | ? | -31.6 | -1.4 | 99.0 | -1.4
O=C(CCCCCN1C(=O)CCC1=O)Nc1ccc2c(c1)OCCO2 | 2.6% | 4.4 | 1.0 | 8.0 | 2.9
COc1ccc(-c2noc(=O)n2CC(=O)N2CCC(Cc3ccccc3)CC2)cc1 | 5.3% | -4.5 | 2.5 | -6.4 | /
COc1ccc(Br)cc1CNC(=O)CCc1nc(-c2ccccc2F)no1 | -1.6% | 3.8 | 0.2 | -6.0 | 23.7
COc1ccc(/C=N/NC(=O)NC23CC4CC(CC(C4)C2)C3)c(OC)c1 | / | / | -2.5 | 95.0 | /
CCCn1cc(S(=O)(=O)c2ccccc2)c(=O)c2cc(OC)c(OC)cc21 | / | / | 1.9 | ? | /
COCc1cc(=O)n2[nH]c(-c3ccsc3-n3c(C)ccc3C)cc2n1 | -4.0% | 4.6 | 10.3 | 12.1 | -18.4
COc1ccc(NC(=O)c2cnc(SCC(=O)NCCc3ccccc3)n(C)c2=O)cc1 | / | / | 5.6 | -1.1 | /
COc1ccccc1N(CC(=O)NCc1ccc(F)cc1)C(=O)CCC(=O)Nc1nccs1 | / | / | -2.9 | 7.0 | /
Cc1nc(NC(=O)c2ccc(Cl)cc2)sc1-c1csc(Nc2cccc(F)c2)n1 | -1.3% | -21.8 | 8.0 | -5.4 | -14.8
COCCCC1CCN(C(=O)CCc2nnc(CCCCc3ccccc3)o2)CC1 | 2.6% | 10.4 | 1.8 | 56.5 | /
Cc1ccc(NC(=O)C2CCCN(S(=O)(=O)c3c(C)noc3C)C2)nc1 (stereo not drawn) | -15.6% | 1.2 | -1.6 | -7.8 | -45.7
CN(CC(=O)NC1CCN(Cc2ccccc2)CC1)S(=O)(=O)c1ccc(Br)s1 | / | / | 0.3 | 3.1 | /
Carrying on:
SMILES | Mtb H37Rv | Arbovirus anti | RecA splice inh | Mtb bLac sens | YopH inh | others
O=C(O)/C=C/c1ccc([N+](=O)[O-])o1 | 7.1% | 1.6 | / | 81.1 | /
COC(=O)CC/C(O)=C1\C(=O)CC(C)(C)CC1=NCc1nc2ccccc2[nH]1 | -2.9% | 3.5 | -0.8 | -16.8 | /
COc1ccc(CNS(=O)(=O)CCNC(=O)c2ccc3c(c2)OCO3)cc1 | / | / | -1.2 | 5.0 | /
Cc1ccc(S(=O)(=O)NC(=O)COc2ccccc2C(N)=O)cc1 | 0.5% | 6.2 | -0.5 | -6.1 | 16.1
Cc1cccc2cc(/C=N/NC(=O)[C@H]3C[C@@H]3c3ccccc3)c(Cl)nc12 | -1.9% | / | 2.2 | -2.1 | /
COCCCNC(=O)c1ccc2nc(Cc3ccc(OC)cc3)oc2c1 | / | / | -0.6 | 1.2 | /
COc1ccc(C2(C(=O)NCCCN(C)C)CCOCC2)cc1 | -2.2% | 13.3 | 2.1 | -4.6 | -26.8 | Arbovirus anti repeat=4.7
CCCC(c1nnnn1C1CCCC1)N1CCN(c2ccccc2F)CC1 (stereo not drawn) | -2.9% | 0.2 | / | 11.1 | -2.5
CCOC(=O)c1c(NC(=O)COc2ccccc2OCC)sc2c1CC(C)(C)NC2(C)C | / | / | 0.2 | 76.9 | /
O=C(COC(=O)C1CSC2(c3ccc(F)cc3)CCC(=O)N12)NC(=O)NC1CCCC1 (stereo not drawn) | -2.7% | 0.8 | 2.8 | 0.2 | /
Cc1cccc(C(=O)NNC(=O)/C=C/C(=O)O)c1 | -2.0% | 11.9 | 0.7 | 9.7 | /
CCc1ccccc1NC(=S)N(Cc1ccco1)C(C)c1cccs1 (stereo not drawn) | 11.1% | 15.2 | 3.1 | -7.3 | /
COc1ccc(NS(=O)(=O)c2cc(NC(=O)/C=C/c3cccs3)ccc2N2CCOCC2)cc1 | 34.7% | 64.3* | 0.4 | 0.5 | -20.0
Cc1cccc(C)c1N(CC(=O)Nc1cccc(N(C)S(C)(=O)=O)c1)S(C)(=O)=O | -8.8% | 9.5 | -2.0 | 1.1 | 2.3
O=C(O)c1ccc(-n2c(-c3ccccc3)n[nH]c2=S)cc1 | -14.8% | 3.2 | -3.5 | 0.0 | -32.9
CCS(=O)(=O)NCCc1csc(-c2ccc(OC)c(OC)c2)n1 | -6.0% | / | -2.8 | -2.2 | /
CC(=O)Nc1ccc(C(=O)N/N=C/c2ccncc2)cc1 | 1.4% | 4.0 | -0.9 | 0.2 | /
Cc1ccc2c(c1)C1CN(C)CCC1N2C(=O)c1cccc(S(=O)(=O)N2CC(C)CC(C)C2)c1 (stereo not drawn) | 4.4% | -3.8 | / | -4.6 | /
N#C/C(=C\c1ccc(-c2cccc(C(F)(F)F)c2)o1)C(=O)Nn1cnnc1 | / | -6.2 | 1.5 | 1.9 | -22.3
CCOCCCN1CC(C(=O)NCCc2ccccc2)CC1=O (stereo not drawn) | 9.1% | 1.8 | 0.2 | -4.1 | -53.8
CNC(=O)CSc1nc2nc(C)cc(C)n2n1 | -7.5% | 2.2 | -4.1 | -1.1 | -50.5
CCC(C)NC(=O)Nc1ccc(C)cc1C (stereo not drawn) | 4.8% | 9.8 | 0.6 | -6.1 | /
COc1ccc(NC(=O)CC(C)(C)C)c([N+](=O)[O-])c1 | -6.1% | 4.5 | 2.4 | -13.4 | -49.4
O=C1NN(c2ccccc2)C(=O)C2C1C1C=CC2C12CC2 (stereo not drawn) | 3.0% | -0.8 | -0.2 | -1.6 | -2.2
CC(OC(=O)/C=C/c1cccs1)C(=O)Nc1ccc(S(N)(=O)=O)cc1 (stereo not drawn) | 3.0% | 7.7 | 0.3 | -2.8 | /
(continued)
SMILES | Mtb H37Rv | Arbovirus anti | RecA splice inh | Mtb bLac sens | YopH inh | others
O=C(O)CSc1nnc(-c2ccncc2)n1C1CCCCC1 | -7.5% | -2.0 | -2.7 | 2.5 | -28.8
CCOC(=O)C1=C(C)C(c2ccc(OC)cc2)NC(=O)N1 (stereo not drawn) | 2.5% | 3.1 | 0.3 | 2.8 | /
C=CCn1cnc2c(nnn2-c2ccc(OC)c(OC)c2)c1=O | 5.1% | 6.8 | 0.7 | -3.3 | /
CCOC(=O)C1CCN(Cc2cn[nH]c2-c2ccccc2)CC1 | -5.9% | 5.0 | -1.0 | -24.1 | -29.6
Cc1ccc(OCC(=O)OCc2nc3scc(-c4ccccc4)c3c(=O)[nH]2)cc1C | / | / | -3.2 | 3.0 | /
COC(=O)c1ccc(CNC(=O)c2cc3ccccc3oc2=O)cc1 | 15.3% | -2.3 | -8.5 | -9.5 | /
CC(C)C(=O)N1CCC2(CC1)Oc1ccc(Cl)cc1C(=O)C21CC(c2cccnc2)=NO1 (stereo not drawn) | -3.0% | / | -0.7 | -10.6 | /
COc1ccccc1C(=O)NC(=O)COC(=O)C1CCC1 | / | / | -1.4 | 8.1 | /
Cc1c(C(=O)N2CCCC(C)C2)sc2ncnc(N3CCCCC3C)c12 (stereo not drawn) | 3.7% | 11.2 | 2.1 | -16.8 | /
CC(O)(CS(=O)(=O)c1cccc(C(F)(F)F)c1)C(=O)Nc1ccc(C(F)(F)F)cc1 (stereo not drawn) | -9.5% | 9.2 | -4.1 | -5.9 | -16.7
CCc1nnc(NC(=O)CN2C(=O)c3ccccc3S2(=O)=O)s1 | -20.4% | -7.8 | -1.1 | 3.9 | -34.7
Cc1cccc(-n2ncc3c(NCc4cccnc4)ncnc32)c1 | 12.0% | 1.2 | 0.2 | -4.4 | / | Arbovirus anti repeat=3.5
COc1ccc(Cc2nc3ccc(C(=O)NC(C)c4cnn(C)c4)cc3o2)cc1 (stereo not drawn) | / | / | -5.8 | -0.1 | /
O=C1CC(Sc2nnc(-c3ccccc3)o2)C(=O)N1c1ccccc1 (stereo not drawn) | -2.9% | 4.6 | -10.4 | 17.9 | -6.0
CC1CCCN(CC(=O)Nc2cccc([N+](=O)[O-])c2)C1 (stereo not drawn) | 2.4% | -5.6 | 0.9 | 5.8 | 5.0
O=C(CSc1ccc2c(c1)OCCO2)Nc1cccnc1 | 8.1% | 1.8 | -2.7 | 0.9 | /
C(=C\c1ccccc1)/CSc1nnc(-c2cccnc2)o1 | 3.0% | -2.4 | 0.0 | 5.9 | -35.8 | Arbovirus anti repeat=1.9
Cc1nn(C)c(C(=O)N/N=C/c2cccc3ccccc23)c1Cl | 1.0% | -3.5 | -0.5 | 7.8 | -30.9
COc1ccc(NC(=O)CSc2nnc(-c3cccnc3)o2)c(OC)c1 | / | / | -2.5 | -8.4 | /
COc1cc(C(=O)NC2CC(C)(C)NC(C)(C)C2)cc(OC)c1OC | -1.8% | 2.8 | -1.5 | -5.8 | /
O=C(NN1C(=O)/C(=C\c2cccnc2)SC1=S)c1ccco1 | -6.1% | 12.7 | -2.7 | 0.9 | /
COc1cc(C)c(Cl)cc1S(=O)(=O)n1ccnc1C | -9.8% | 0.5 | -1.8 | 3.2 | -25.0

Structures listed so far that contain fluorine, in the order listed:
SMILES | Mtb H37Rv | Arbovirus anti | RecA splice inh | Mtb bLac sens | YopH inh | others
COC(=O)c1ccccc1NS(=O)(=O)c1ccc(F)cc1 | -2.0% | 3.1 | 1.4 | -8.5 | -12.8
Cc1cc(NC(=O)CCS(=O)(=O)c2ccc(F)cc2)no1 | / | / | -0.3 | -9.0 | /
O=C(CSc1ncc(-c2ccccc2)[nH]1)Nc1ccccc1F | 0.6% | -8.9 | -1.5 | -6.7 | /
CN(C)CC/C=C1\c2ccccc2Sc2cc(F)c(Cl)cc21 | / | / | 6.2 | 90.9 | /
COc1ccc(Br)cc1CNC(=O)CCc1nc(-c2ccccc2F)no1 | -1.6% | 3.8 | 0.2 | -6.0 | 23.7
COc1ccccc1N(CC(=O)NCc1ccc(F)cc1)C(=O)CCC(=O)Nc1nccs1 | / | / | -2.9 | 7.0 | /
Cc1nc(NC(=O)c2ccc(Cl)cc2)sc1-c1csc(Nc2cccc(F)c2)n1 | -1.3% | -21.8 | 8.0 | -5.4 | -14.8
CCCC(c1nnnn1C1CCCC1)N1CCN(c2ccccc2F)CC1 (stereo not drawn) | -2.9% | 0.2 | / | 11.1 | -2.5
O=C(COC(=O)C1CSC2(c3ccc(F)cc3)CCC(=O)N12)NC(=O)NC1CCCC1 (stereo not drawn) | -2.7% | 0.8 | 2.8 | 0.2 | /
N#C/C(=C\c1ccc(-c2cccc(C(F)(F)F)c2)o1)C(=O)Nn1cnnc1 | / | -6.2 | 1.5 | 1.9 | -22.3
CC(O)(CS(=O)(=O)c1cccc(C(F)(F)F)c1)C(=O)Nc1ccc(C(F)(F)F)cc1 (stereo not drawn) | -9.5% | 9.2 | -4.1 | -5.9 | -16.7

High-throughput results from PubChem.

These rows are one share of the data; count on the stated rates, not on these rows.
